# Source: PubChem BioAssay (ICCB-Longwood Screening Facility, Harvard Medical School)
# CapD inh – CapD enzyme inhibition; z-score (test concentration not listed); AID 492967; 140,000 compounds, 0.23% hits; purified CapD enzyme, fluorescence intensity read-out; hits give low values; some hits fall short of the stated cut;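 active = z-score under -4 in either of two replicates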;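 also: stock transfer was 100 nL into about 40 µL; score is relative to mean and spread of the plate; one replicate is shown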
# AID504770 – growth inhibitors of E. coli YBA685 in a screen for V. cholerae RctB (chromosome II replication) inhibitors | 130,000 compounds, 0.27% hits | E. coli YBA685 rctB-dependent plasmid, OD600 growth, 3 h; hits give low values | z-score (no concentration beside the values) | AID 504770;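 active = z-score under -2 on both plates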;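 also: wells of about 30 µL received 100 nL stock; score is relative to mean and SD of the test wells; the first replicate is given; strong numbers were not always called active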
# * hit, by the source's call; i = inactive; · = no result given.
# Results follow in this order: CapD inh	AID504770
- CCCCCC(=O)N1c2ccccc2NC2=C(C(=O)CC(C)(C)C2)C1c1cccc(OC)c1OC (centres undefined)
→ 0.67	·
- Cc1ccc2c(c1)N(C(=O)CN1CCCN(Cc3ccccc3)S1(=O)=O)CCO2
→ -0.2	0.2
- Cc1csc(N)c1C(N)=O
→ -0.72	·
- O=C(Nc1ccc(S(=O)(=O)N2CCCCC2)cc1)c1sc2ccccc2c1Cl
→ 0.01	·
- CCN1C(=O)c2ccccc2Sc2ccc(NC(=O)NC3CCCC3)cc21
→ 0.11	0.45
- COc1ccc(CC(=O)N2CCCc3ccccc32)cc1OC
→ -0.5	·
- O=C(CSc1nnc(NC(=O)Cc2ccccc2)s1)Nc1ccccc1
→ -0.08	-0.8
- FC(F)(F)c1ccc(-c2nc(-c3ccccn3)ncc2-c2ccncn2)cn1
→ -0.45	·
- CCOc1ccccc1NC(=O)CSc1nc2cnn(C)c2c(=O)n1Cc1ccccc1
→ 0.21	-0.6
- CC(=O)Nc1cc(C(F)(F)F)ccc1N1CCOCC1
→ 0.05	1.8
- CC(C)c1ccc(/C=C/C(=O)O)cc1
→ -0.2	-0.2
- CCCOc1c(Br)cc(/C=C2\NC(=S)NC2=O)cc1OCC
→ 0.48	·
- CN1/C(=C\C(=O)COC(=O)Cc2cn3ccsc3n2)C(C)(C)c2ccccc21
→ ·	-0.6
- Cc1csc2c(=O)sc(NC(=O)c3ccc(F)cc3Cl)nc12
→ -0.62	1.1
- c1ccc(CSc2snnc2-c2ccccc2)cc1
→ -0.62	-0.9
- CCOc1ccc(Cl)cc1S(=O)(=O)N1CC(C)OC(C)C1 (centres undefined)
→ -0.23	-0.35
- CCOC(=O)N1CCN(C(=O)CNC(=O)Cn2cnc3sc(C)c(C)c3c2=O)CC1
→ -0.98	·
- Cc1cc(C(=O)COC(=O)Cn2cnnn2)c(C)n1-c1cccc(S(=O)(=O)N2CCOCC2)c1
→ ·	-0.6
- O=C1CC(C(=O)Nc2ccccc2)N=C(N2CCCCC2)N1 (centres undefined)
→ -0.38	0.25
- O=P1(N2CCC(Cc3ccccc3)CC2)CC=CC1
→ ·	-0.35
- COC(=O)c1cc(S(=O)(=O)N2CCSC2)oc1C
→ 0.16	-0.4
- COc1cccc2cc(C(=O)N3CCN(CCO)CC3)c(=O)oc12
→ 0.06	-2
- CC(C)(C)NC(=O)CCC1=NS(=O)(=O)c2ccccc2N1
→ -1.1	0.9
- O=C(CC12CC3CC(CC(C3)C1)C2)NCC(=O)OCc1nnc(-c2ccc(Br)cc2)o1
→ ·	-0.55
- CCOc1ccsc1C(=O)NNC(=O)OCc1nccn1Cc1ccccc1
→ -0.73	·
- Cc1nn(C(=O)C(C)N2C(=O)c3ccccc3C2=O)c(C)c1Br (centres undefined)
→ 0.03	-0.1
- NC(=O)c1cc(S(=O)(=O)NCc2cccs2)cs1
→ -0.065	-1.1
- O=C(CSc1ccc(C(F)(F)F)cn1)c1cccc(C(F)(F)F)c1
→ 0.68	-0.05
- CCN(CC)c1ncnc2sc(C(=O)N3CCN(Cc4ccccc4)CC3)c(C)c12
→ 0.07	·
- Cc1cc(C)nc(OC(Cc2cnc3ccccc3n2)c2cc(C(F)(F)F)cc(C(F)(F)F)c2)n1 (centres undefined)
→ -0.54	·
- O=C(c1nsnc1-c1ccccc1O)N1CCCC1
→ -0.17	0.45
- Cc1nn(C)c(C)c1NC(=O)/C=C/c1ccco1
→ 73	-0.6
- COc1ccc(-n2c(SCC(=O)NCCc3ccccc3)nc3c(c2=O)SCC3)cc1
→ -0.64	1.6
- Cc1ccc2nc(-c3ccccn3)oc2c1
→ 67	0.9
- COc1ccc(Br)cc1/C=C/[N+](=O)[O-]
→ -0.54	·
- COc1ccc(-c2cc(=O)oc3cc4occ(-c5cccc(OC)c5)c4cc23)cc1
→ -0.025	2
- Cc1nc2scc(C)n2c(=O)c1S(=O)(=O)N1CCC(C)CC1
→ 3.2	-0.15
- N#Cc1c(NC(=O)COC(=O)c2cccs2)sc2c1CCCCC2
→ ·	0.45
- CCCCC(CC)CN=C1NS(=O)(=O)c2ccccc21 (centres undefined)
→ 0.5	1.1
- CC(C)c1ccc(NC(=O)N2CCC(N)CC2)cc1
→ 0.43	-0.8
- CCN(CC)C(=S)Nc1ccc(OC)cc1
→ -0.24	-0.5
- COc1ccccc1C(=O)N=c1sc2cc(Cl)ccc2n1C
→ 0.69	0.15
- O=c1oc2ccccc2n1CCOc1ccccc1
→ 0.54	-0.7
- C1CCCN(c2nc3nonc3nc2N2CCCCCC2)CC1
→ ·	-0.3
- CC(C)c1ccc(C(=O)O)c(C(C)C)c1
→ ·	-1.1
- COc1cc2c(cc1OC)-c1nc3ccccc3c(=O)n1C(C)(C)C2
→ 7.2	-0.85
- N#C/C(=C/c1cn(CC(=O)O)c2ccccc12)c1ccc(C(=O)O)cc1
→ -0.045	1
- COc1ccccc1N1CCN(CC(O)c2ccc3cc[nH]c3c2)CC1 (centres undefined)
→ 1.3	0.15
- COc1ccc2c(c1)-c1ccccc1S(=O)(=O)N2C(C)=O
→ 1	0.6
- CCc1nc2c(cnn2-c2ccc3ccccc3c2)c(=O)[nH]1
→ 0.64	0.6
- Cc1nn(CC(=O)NN)c(C)c1Br
→ -0.29	·
- Cc1cc(C)cc(NC(=O)c2c(C)noc2C)c1
→ ·	0.85
- CCNc1ccc(S(=O)(=O)C(F)(F)F)cc1NCC(=O)N1CCCc2ccccc21
→ ·	-0.3
- O=C(NCc1ccc(-c2nc3ccccc3o2)cc1)c1ccccc1Br
→ 0.81	0.8
- Nc1c(C(=O)Nc2ccccc2)nnn1Cc1ccccc1
→ ·	0.1
- Cc1ccc(OCC(=O)Nc2sc3c(c2C#N)CC(C)(C)NC3(C)C)cc1
→ 0.49	-0.3
- Cc1ccc(-n2nnc3c(SCC(=O)N4CCCC4)ncnc32)cc1
→ -0.25	-0.05
- Nc1ccc(-c2cn3c(n2)SCC3)cc1
→ -0.06	0.55
- COc1ccccc1NC(=O)C1=C(C)NC(=O)NC1c1cc(OC)c(OC)c(OC)c1 (centres undefined)
→ -0.1	·
- Cc1ccc2c(c1)c1nnc(SCC(=O)Nc3ccc(N(C)C)cc3)nc1n2CC(=O)O
→ ·	-0.8

# (next part)
# Results follow in this order: CapD inh	AID504770
- CCCn1c(SCc2ccccc2)nc(-c2ccccc2)c1-c1ccccc1
→ 1.8	·
- CCOC(=O)c1c(CSc2nc(C)ccc2C#N)oc2ccc(OC(C)=O)cc12
→ 0.11	2
- Cc1ccc(O)c(C(=O)c2cc(C#N)c(=O)n(C3CCCCC3)c2)c1
→ ·	-0.85
- O=C(N/N=C/c1cc(Br)ccc1O)N/N=C/c1cc(Br)ccc1O
→ -0.24	·
- CC(C)CCOc1ccc(C(=O)O)cc1
→ -0.035	-0.55
- CSc1c(C#N)c(N)nc(SCc2ccc(F)c(F)c2)c1C#N
→ 0.92	-0.55
- CC(C)CCNC(=O)Nc1ccc2c(c1)N(C)C(=O)CS2
→ 0.2	-0.8
- COC(=O)CN(c1c(C)cccc1C)S(C)(=O)=O
→ 0.63	1.1
- CCSc1nnc2sc3ccccc3n12
→ -0.32	0.5
- Cc1csc(C(=O)Nc2cccc(C(F)(F)F)c2)c1
→ -1.4	-0.65
- CCCCc1ccc(NS(=O)(=O)c2cccs2)cc1
→ -0.24	0.15
- CCN1C(=O)c2cccc3c(S(=O)(=O)NC(Cc4ccccc4)C(=O)O)ccc1c23 (centres undefined)
→ 0.53	-2.6
- CCN(C(=O)c1cncn1-c1ccc(F)cc1)c1nc2c(C)cccc2s1
→ ·	-0.6
- CCC(C(=O)Nc1cccc(OC)c1)n1c(SCc2ccc(C)cc2)nc2cccnc21 (centres undefined)
→ 79	1.4
- CCC(C(=O)O)C(C)CC(=O)Nc1ccccc1Cl (centres undefined)
→ ·	0.05
- O=C(Nc1c(C(=O)N(Cc2ccc(F)cc2)Cc2cccnc2)oc2ccccc12)C1CC1
→ 12	-1.1
- COC(=O)c1c(N)sc2c1CCC(C(C)(C)C)C2 (centres undefined)
→ -0.51	-0.7
- CCOc1ccc(Br)cc1S(=O)(=O)Nc1ccc(F)cc1
→ 0.26	-0.05
- O=C1NC(=O)N(c2ccccc2)C(=O)C1=Cc1c2ccccc2cc2ccccc12
→ -0.29	3.4
- CC1CCCCC1NC(=O)CC#N (centres undefined)
→ -0.54	1.2
- NNC(=O)CNS(=O)(=O)c1cccc2nsnc12
→ -0.25	·
- Oc1ccc(-c2[nH]ncc2-c2nc3ccccc3s2)c(O)c1
→ i	-0.8
- COC(=O)c1scc(S(=O)(=O)C(C)(C)C)c1N
→ 27	-0.5
- O=C1CCCC2C3CCCN4CCCC(CN12)C34 (centres undefined)
→ -0.28	-0.75
- CC(=O)N1C(C(=O)O)CSC1c1cccs1 (centres undefined)
→ -0.6	0.25
- Cc1ccccc1OCC(=O)Nc1ccc2nn(-c3ccccc3)nc2c1
→ 35	1.1
- CC12CCC(CC1=NNc1nc3ccccc3o1)C2(C)C (centres undefined)
→ ·	-0.5
- COC(=O)C1=CN(Cc2ccc(OC)cc2)C=C(C(=O)OC)C1c1cccc(O)c1
→ 93	-0.15
- N#CC1=C(SCCCCSC2=C(C#N)C3(CCCCC3)C(C#N)C(=O)N2)NC(=O)C(C#N)C12CCCCC2 (centres undefined)
→ 0.03	·
- COc1ccc(C2=NN(C(=O)CCC(=O)O)C(c3ccc(F)cc3)C2)cc1OC (centres undefined)
→ 45	·
- CN1CCN(Cn2nc(-c3cccc(S(=O)(=O)N4CCOCC4)c3)n(Cc3ccc(F)cc3)c2=S)CC1
→ ·	0.1
- CCOCCOC(=O)C1=C(C)NC2=C(C(=O)CC(c3ccc(Cl)cc3)C2)C1c1ccc(OC(C)=O)c(OCC)c1 (centres undefined)
→ 40	·
- Cc1c(O)nc2ccccn2c1=O
→ -0.78	1.1
- CCCc1[nH]nc2c1C(c1ccc(OC(=O)N3CCOCC3)cc1)C(C#N)=C(N)O2 (centres undefined)
→ 0.48	·
- COc1cc(OC)c(CN2CCN(S(=O)(=O)c3cc(Br)c(Cl)s3)CC2)c(OC)c1
→ 0.32	·
- Cc1cccc(Cn2nc(C(C)(C)C)cc2C(=O)NCc2cccs2)c1
→ 0.28	0.35
- O=C(N/C=C/c1ccco1)OCc1ccccc1
→ 0.66	-1.4
- CCCS(=O)(=O)c1c(S(=O)(=O)CCC)c2cc(-c3ccncc3)ccn2c1C(=O)c1ccc(C)cc1
→ 0.23	·
- COCC(C)NC(=O)c1cccc(Cl)c1 (centres undefined)
→ 0.47	-0.8
- C1CCC(NC2=NCCS2)CC1
→ -0.77	1.2

# Whole records from above. Order of values: CapD inh | AID504770
# Listed for Cc1ccccc1OCC(=O)Nc1ccc2nn(-c3ccccc3)nc2c1 → 35 | 1.1
# Listed for CCOCCOC(=O)C1=C(C)NC2=C(C(=O)CC(c3ccc(Cl)cc3)C2)C1c1ccc(OC(C)=O)c(OCC)c1 (centres undefined) → 40 | ·
# Listed for CN1CCN(Cn2nc(-c3cccc(S(=O)(=O)N4CCOCC4)c3)n(Cc3ccc(F)cc3)c2=S)CC1 → · | 0.1
# Listed for CC12CCC(CC1=NNc1nc3ccccc3o1)C2(C)C (centres undefined) → · | -0.5
# Listed for COC(=O)C1=CN(Cc2ccc(OC)cc2)C=C(C(=O)OC)C1c1cccc(O)c1 → 93 | -0.15

# The listing continues.
# Results follow in this order: CapD inh	AID504770
- OCc1c[nH]c2ccccc12
→ ·	0.95
- CSc1ccc(CN2CCN(Cc3ccco3)CC2)cc1
→ 0.41	-0.4
- Cn1cnc(S(=O)(=O)NCC2CCN(S(=O)(=O)c3ccccc3)CC2)c1
→ 0.62	0.65
- O=c1ccc2cc(O)c(O)cc2o1
→ -1.5	0.2
- O=c1[nH]c2ccccc2c(O)c1-c1nc2ccccc2c(=O)[nH]1
→ ·	1.5
- CSc1[nH]c(=O)cc(C)c1C(=O)O
→ ·	-0.6
- N#CC1=C(N)OC2=C(C(=O)CCC2)C1c1ccccc1OC(=O)N1CCOCC1 (centres undefined)
→ 0.27	·
- COc1cc(-c2nc3ccccc3c(=O)n2NC(=O)Cn2nc(C(F)(F)F)c(Br)c2C)cc(OC)c1OC
→ 0.22	·
- COCc1nnc(NS(=O)(=O)c2ccc(OC)cc2)s1
→ 0.71	-0.8
- COc1cc(C=Nc2nonc2NC(C)=O)ccc1OC(C)C
→ -0.12	-0.45
- Cc1ccc(CN(C)C(=O)CN(C)S(=O)(=O)c2ccc(Cl)cc2)o1
→ ·	-1.3
- CC(OCc1ccccc1)C(NC(=O)CC1Cc2ccccc2C1)C(N)=O (centres undefined)
→ -0.93	·
- CCC(C)NC(=O)/C=C/c1cc2c(cc1Br)OCO2 (centres undefined)
→ 7.6	-0.4
- CCc1ccc(OC(C)C(=O)N2CC(C(=O)OC)Oc3ccccc32)cc1 (centres undefined)
→ 0.18	0.1
- CCC(CC)NC(=O)COc1ccc(Cl)cc1Cl
→ 0.51	0.15
- Cc1cccc(CN2CCNCC2)c1
→ ·	-1
- CCOC(=O)c1cc(C#N)c(Sc2ccccc2)nc1C(F)(F)F
→ 2.9	-0.65
- CCOC(=O)c1cc2c(=O)n3cccc(C)c3nc2n(C)c1=N
→ ·	0.6
- O=C(CSc1ccccn1)Nc1cc(C(F)(F)F)cc(C(F)(F)F)c1
→ -0.69	-0.4
- O=C(NCC(c1cccs1)N1CCc2ccccc2C1)C1CC1 (centres undefined)
→ ·	-0.6
- CN(Cc1ccccc1)C(=O)COC(=O)C1=NNC(=O)CC1
→ ·	1.1
- Cc1ccc(S(=O)(=O)NCCOc2nc(N(C)C)nc(N3CCOCC3)n2)cc1
→ 87	0.2
- COc1ccc(-c2cc3c(=O)[nH]ncn3n2)cc1
→ -0.59	-0.35
- O=C(c1ccco1)N(Cc1ccc(Cl)cc1)Cc1ccc2cc[nH]c2c1
→ -0.3	·
- Cc1nc2c(ccc3nc(NC(=O)c4ccc(S(=O)(=O)N5CCc6ccccc6C5)cc4)sc32)s1
→ 5.3	·
